Bioassay records as filed in PubChem BioAssay.
AID504770: growth inhibition of E. coli YBA685, primary screen, V. cholerae RctB inhibitors; E. coli YBA685 rctB-dependent plasmid, OD600 growth, 3 h; stronger effect = lower value; z-score (test concentration not listed); 0.27% of 130,000 active;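 active = z-score under -2 on both plates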;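 note: wells of about 30 µL received 100 nL stock; score is relative to mean and SD of the test wells; the first replicate is given; strong numbers were not always called active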
Ba CapD inh: Bacillus anthracis CapD inhibitors, primary screen, biochemical, fluorescence intensity; CapD gamma-glutamyltranspeptidase (Bacillus anthracis Ames Ancestor); AID 492967, 2010; z-score (test concentration not listed); 0.23% of 140,000 active; purified CapD enzyme, fluorescence intensity read-out; stronger effect = lower value; some hits fall short of the stated cut;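 active = z-score under -4 in either of two replicates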;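 note: stock transfer was 100 nL into about 40 µL; score is relative to mean and spread of the plate; one replicate is shown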
Numbers without * were called inactive; . = no result given; & = joins results of further samples.

SMILES | AID504770 | Ba CapD inh
Cc1cc(=O)oc(C)c1C(=O)Nc1ccccc1C(=O)N1CCCCC1 | 0.15 | 1.1
O=C(c1ccccc1)c1nn(-c2ccc(Cl)cc2)ccc1=O | 1.8 | 8.5
COc1cc(/C=C\C(=O)NCc2ccc3c(c2)cc(C)n3C)cc(OC)c1OC | 1.9 | 0.15
O=C(NCCc1c[nH]c2ccccc12)OCCOc1ccc2ccccc2c1 | . | 0.49
CN(C)c1ccc(/C=C(\C#N)S(=O)(=O)c2ccccc2)cc1C#N | -0.8 | -0.82
N#Cc1ccccc1N1CCN(C(=O)C2CC=CCC2C(=O)O)CC1 (centres undefined) | . | 29
COc1ccc(NC(=O)C2CC(=O)N(Cc3ccc4c(c3)OCO4)C(=Nc3ccc(F)cc3)S2)cc1 (centres undefined) | . | -0.2
COc1ccc(COC(=O)C2=C(C)NC3=C(C(=O)CCC3)C2c2cc(Br)ccc2OC)cc1 (centres undefined) | . | 24
COc1cccc2cc(-c3ccc4c(c3)OCO4)c(=O)oc12 | 0.25 | -0.53
CC(C)N1Cc2ccccc2-n2cccc2C1C(=O)O (centres undefined) | . | -0.7
CC(=O)N1N=C(c2ccc(Br)cc2)CC1c1ccc([N+](=O)[O-])cc1 (centres undefined) | . | 0.065
O=S(=O)(N/N=C/c1ccc(N2CCOCC2)cc1)c1ccccc1 | 1.2 | .
COc1cc(C2Nc3ccccc3NC3=C2C(=O)CC(C)(C)C3)ccc1OCc1ccccc1 (centres undefined) | . | -0.71
N#Cc1oc2ccccc2c1N=Cc1c(O)n(-c2cccc(C(F)(F)F)c2)c(=O)c2ccccc12 | -0.15 | .
O=C1/C(=N\O)c2cccc3cccc1c23 | -0.2 | 1.8
S=C(NN=C1CCCCC1)NC1CCCCC1 | 1.8 | .
Cc1ccc(NC(=O)C(C)SC2=NCCS2)cc1 (centres undefined) | -0.3 | 0.21
Cc1ccc(S(=O)(=O)CNC(=O)C(C)(C)C)cc1 | -0.5 | -0.35
COC(=O)COc1cccc2c(=O)n(CC(=O)N3CCCc4ccccc43)ccc12 | 1.9 | .
CNC(=O)CCC(=O)N1CCOc2ccc(C)cc21 | 0.15 | 1.1

3 structures already listed, sorted by count of non-hydrogen atoms, rising:
SMILES | AID504770 | Ba CapD inh
CNC(=O)CCC(=O)N1CCOc2ccc(C)cc21 | 0.15 | 1.1
O=C(NCCc1c[nH]c2ccccc12)OCCOc1ccc2ccccc2c1 | . | 0.49
COc1ccc(COC(=O)C2=C(C)NC3=C(C(=O)CCC3)C2c2cc(Br)ccc2OC)cc1 (centres undefined) | . | 24

Back to the main list, repeating the three entries before the break.
SMILES | AID504770 | Ba CapD inh
Cc1ccc(S(=O)(=O)CNC(=O)C(C)(C)C)cc1 | -0.5 | -0.35
COC(=O)COc1cccc2c(=O)n(CC(=O)N3CCCc4ccccc43)ccc12 | 1.9 | .
CNC(=O)CCC(=O)N1CCOc2ccc(C)cc21 | 0.15 | 1.1
CC(C)(C)OC(=O)COn1ccc2ccc(S(C)(=O)=O)cc21 | . | 3.6
CN(c1nnc(NC(=O)Nc2ccccc2)s1)C1CCCCC1 | -0.3 | -0.025
Nc1c(C(=O)c2ccccc2)sc2sc(C(=O)c3ccccc3)c(N)c12 | . | -0.55
Cc1cccc(C)c1NC(=O)CCCSc1nnnn1-c1ccccc1 | 0.4 | -0.1
CC(=O)OCCn1c(=O)[nH]c(=O)c2nsnc21 | 1.1 | 5.3
O=C(OCCSc1ccc(C(F)(F)F)cn1)N1CCC(O)(c2ccc(Cl)cc2)CC1 | . | 0.72
O=C1CC(c2ccccc2)CC2=C1C(c1ccc(O)cc1)Nc1ccc3ccccc3c12 (centres undefined) | . | 79
Oc1c(C=C2N=c3ccccc3=N2)sc(=S)n1-c1ccc(F)cc1 | 1.1 | 0.11
C=CCn1c(=N)n(CC(=O)c2ccco2)c2ccccc21 | 1.9 | -0.32
O=C(C1CC(=O)N(C2CCCC2)C1)N1CCC(Cc2ccccc2)CC1 (centres undefined) | -0.8 | 0.18
Cc1n[nH]c(C)c1CCN | 0.2 | .
O=C(O)c1ccccc1C(=O)N1CCN(c2ncccn2)CC1 | -0.1 | 3.6
COc1ccc(Cn2nnc3c(=O)[nH]c(C(=O)NCCc4ccc(F)cc4)nc32)cc1OC | 0 | 0.28
CCOC(=O)/C(C#N)=C/c1cn(CCOc2ccccc2)c2ccccc12 | 1.2 | 0.42
CCC(=O)OC1CCC2C3CCC4CC(=O)CCC4(C)C3CCC12C (centres undefined) | 0.25 | 0.34
Cn1ncc(C(=O)Nc2cccc(F)c2)c1-n1cccc1 | -0.05 | 0.32
O=c1c2ccccc2c(-c2ccc(F)cc2)nn1-c1cc(N2CCOCC2)ccc1[N+](=O)[O-] | . | -1.9
COc1ccc(-c2nc(/C=C/C(=O)O)cs2)cc1 | -0.1 | .
CCOC(=O)c1cnc(SCSc2nc3ccccc3s2)nc1N | 0.2 | -0.05
COc1ccc(C(=O)Nc2ccc3oc(-c4cccc5ccccc45)nc3c2)cc1[N+](=O)[O-] | . | 6.5
Cc1cccc(-n2ncc3c(NCCc4ccccc4)ncnc32)c1 | 1.1 | 0.06
Clc1cc(Cl)cc(-n2cccc2)c1 | . | -0.32
COc1ccc(OC)c(C2c3cccn3CCN2S(=O)(=O)c2ccccc2C(F)(F)F)c1 (centres undefined) | 1.5 | .
COc1ccc(/C=C/C(OC(=O)Nc2cccc(F)c2)c2ccccn2)cc1 (centres undefined) | . | -0.32
CC1CC[C@@H]2N(C1)CC1C(CC[C@H]3C4CC(=O)[C@H]5CC(=O)CCC5(C)[C@H]4C[C@@H]13)[C@]2(C)O (some centres undefined) | 0.45 | -0.51
COC(=O)c1ccc(OCC(O)CNS(=O)(=O)c2ccccc2C(=O)O)cc1 (centres undefined) | 0.1 | -0.005
CCC(Sc1nc(NCc2ccc(Cl)cc2)c2ccccc2n1)C(=O)N1CCOCC1 (centres undefined) | . | 0.16
NNc1cccc(Cl)n1 | -0.5 | -0.45
CCn1c(C(C)NC(C)=O)nc2ccccc21 (centres undefined) | 1.5 | -0.15
CC(C)(C)c1ccc2c(c1)C1c3ccc(C(C)(C)C)cc3C2C2C(=O)N(c3ccc(F)cc3)C(=O)C12 (centres undefined) | . | -0.45
O=C1C(=O)N(c2ccc(Br)cc2)C(c2ccc(Br)cc2)/C1=C(/O)c1ccccc1 (centres undefined) | . | -0.68
COc1cc(Cl)c(C)cc1NC(=O)Cn1c(=O)c2c(ncn2CC(C)C)n(CC(C)C)c1=O | 0.6 | .
O=C(O)CC1SC(=Nc2ccc(O)cc2)NC1=O (centres undefined) | -0.55&0.75 | -0.79
COc1ccc(-c2nc3ccccc3c(=O)n2CC(=O)Nc2ccc(C)c(F)c2)cc1OC | . | 27
O=C(Nc1nnc(CCOCCOCCc2nnc(NC(=O)c3ccccc3)s2)s1)c1ccccc1 | . | 1.1
CC(Cc1nnc(SCC(=O)Nc2ccc(Cl)cn2)n1N)c1ccccc1 (centres undefined) | -0.6 | .
CCOC(=O)c1c(C)[nH]c2ccc(O)cc12 | -0.55 | -0.26
CCOC(=O)/C=c1\s/c(=C\c2cccs2)c(=O)n1CC(=O)N(C)C | -0.4 | .
O=C(O)C(Nc1ccc2c(c1)OCO2)c1ccccc1 (centres undefined) | . | 3.6
CCCN(CC(=O)Nc1ccc(Cl)cc1Cl)Cn1nnc2ccccc21 | -1.1 | .

Full records, looked up by structure. Values in the order: AID504770	Ba CapD inh
COC(=O)c1ccc(OCC(O)CNS(=O)(=O)c2ccccc2C(=O)O)cc1 (centres undefined) reads 0.1	-0.005
COc1ccc(/C=C/C(OC(=O)Nc2cccc(F)c2)c2ccccn2)cc1 (centres undefined) reads .	-0.32
CCn1c(C(C)NC(C)=O)nc2ccccc21 (centres undefined) reads 1.5	-0.15
CC(Cc1nnc(SCC(=O)Nc2ccc(Cl)cn2)n1N)c1ccccc1 (centres undefined) reads -0.6	.
Clc1cc(Cl)cc(-n2cccc2)c1 reads .	-0.32

Next part:
SMILES | AID504770 | Ba CapD inh
Cc1cc(C(=O)CN2CCN(C(=O)c3cccs3)CC2)c(C)n1-c1ccc(S(N)(=O)=O)cc1 | 0.45 | .
CCOC(=O)C1=C(O)/C(=C/c2ccccc2OC)SC1=Nc1ccccc1 | . | -0.095
Cc1c(C(=O)N2CCN(c3ccccn3)CC2)sc2ncnc(N3CCC(C)CC3)c12 | . | 0.37
O=C(COc1ccc(-n2cnnn2)cc1)NCCC1=CCCCC1 | 0.2 | .
Cc1cc(C)n(-c2nc3ccccc3nc2N2CCN(S(=O)(=O)c3cccs3)CC2)n1 | -0.7 | -0.39
Cc1ccc(C2OC3(C(=O)c4ccccc4C3=O)C3C(=O)N(c4cccc(Cl)c4C)C(=O)C23)cc1 (centres undefined) | . | -0.42
COc1ccc(/C=N/NC(=O)c2ccc(Cl)c(S(N)(=O)=O)c2)cc1OCC(N)=O | 0.5 | .
CNC(=O)NC(=O)COc1ccc2oc3c(c2c1)CCCC3 | -0.5 | .
Fc1ccccc1CCNCc1ccco1 | 2 | -0.92
C=CCn1c(Cc2csc(N)n2)nnc1SCc1ccc(C(=O)OC)cc1 | -0.65 | 0.18
N#CC1=C(SCC(=O)OCc2ccccc2)NC(=O)CC1c1ccc(Cl)cc1Cl (centres undefined) | . | 0.39
COC(=O)c1ccc(N2C(=O)CCC2=O)cc1 | 0.45 | -0.25
Nc1cc(=O)[nH]c(SCc2ccccc2Cl)n1 | 0.25 | 0
O=C(CSc1nnnn1C1CCCC1)NN1C(=O)NC(c2ccccc2)(c2ccccc2)C1=O | 0.45 | .
CCC(C)OC(=O)C1=C(C)NC2=C(C(=O)CC(c3ccc(OC)cc3)C2)C1c1ccc(OC)cc1OC (centres undefined) | . | 1.8
CCOC(=O)c1c(C)n(CCOc2ccc(C(C)(C)c3ccccc3)cc2)c2c1cc(O)c1ccccc12 | . | -0.45
CCc1ccc(C2C3=C(CCCC3=O)Nc3c2c(=O)n(C)c(=O)n3C)cc1 (centres undefined) | -0.45 | -0.43
Oc1ccc(Br)cc1CNc1cccc(C(F)(F)F)c1 | 0.95 | -0.035
Cc1nnc(SC(c2ccccc2)c2ccccc2)s1 | 0.3 | 0
CCCC1(C)NC(=O)c2ccccc2O1 (centres undefined) | -0.2 | .

Random excerpt: 3 entries already listed.
SMILES | AID504770 | Ba CapD inh
CNC(=O)NC(=O)COc1ccc2oc3c(c2c1)CCCC3 | -0.5 | .
C=CCn1c(Cc2csc(N)n2)nnc1SCc1ccc(C(=O)OC)cc1 | -0.65 | 0.18
Cc1c(C(=O)N2CCN(c3ccccn3)CC2)sc2ncnc(N3CCC(C)CC3)c12 | . | 0.37

Further compounds
SMILES | AID504770 | Ba CapD inh
CCN(CC)CCCNc1nc(-c2ccccc2)nc2ccccc12 | . | 1.4
Cc1nc2ccc(NC(=O)N3CC4(C)CC3CC(C)(C)C4)cc2nc1C (centres undefined) | -0.3 | 40
O=C(O)c1cc(=O)c2c(OCC(O)COc3cccc4oc(C(=O)O)cc(=O)c34)cccc2o1 | 0.25 | -0.75&-0.11
Cc1ccn(C(=O)c2ccc(NC(=O)C3CC3)cc2)n1 | -0.2 | 5.7
CCOc1ccc(C2C(N3C(=O)c4ccccc4C3=O)C(=O)N2c2ccc(OC)c(OC)c2)cc1 (centres undefined) | . | 0.14
c1ccc(Nc2nnc(-c3cccc4ccccc34)o2)cc1 | 0.1 | 87
O=S1(=O)CC(N2CCCCC2)C(N2CCCCC2)C1 (centres undefined) | 0.15 | 0.32
CC1=CC(=O)N(c2ccc(OC(F)(F)F)cc2)C1=O | 1.4 | 0.61
COc1ccc(-c2csc3nc(C)n(-n4cccc4)c(=O)c23)cc1 | 0.2 | .
Nn1c(C2CC2)nc2cc(Cl)ccc2c1=O | -0.4 | .
NC(=O)c1c(NC(=O)c2ccccc2)sc2c1CCC2 | 0.15 | 6.4
Clc1ccc(OCc2nc3ccccc3[nH]2)c(Cl)c1 | 0.05 | 0.13
O=C(Cc1ccccc1)NCCCN1CCOCC1 | -0.6 | 0.065
COc1ccc(-n2c(-c3ccc(Br)cc3)cn3c4c(=O)n(C)c(=O)n(C)c4nc23)cc1OC | . | 0.1
Cc1ccc(C(=O)N2CCc3cc(C(=O)C(C)N4CCC(C)CC4)ccc32)cc1 (centres undefined) | -0.05 | .
COC(=O)CC(=O)CSc1nc2c(cc1C#N)CCC2 | 1.9 | 24
CN(Cc1nc(-c2ccccc2)no1)C(=O)CC(C)(C)C | 1.5 | 0.54
Cc1ccc(C2=NN(C(=O)CNc3ccc(S(=O)(=O)N4CCCC4)cc3)C(c3ccco3)C2)cc1 (centres undefined) | 0.2 | .
O=C(COc1nc2ccccc2nc1N1CCOCC1)NCCc1ccc(F)cc1 | -0.8 | .
COc1cccc(NC(=S)Nc2ccccc2-n2cccc2)c1 | . | 0.66
Cc1cc(C)nc(OCC(=O)N(c2ccc(Cl)cc2)C(C)C)n1 | . | -0.49
CC1CN(C(=O)C2CCCO2)CC(C)O1 (centres undefined) | 0.05 | -0.48
CC(C)(C)c1ccc(CS(=O)(=O)CCCS(=O)(=O)c2ccccc2)cc1 | . | 0.44
Cc1nn(CCCC(=O)NC2CCCCC2)c(=O)c2nccn12 | -0.1 | -0.3
COc1cccc(CN2CCN(CCOC(=O)N3CCN(c4cc(OC)cc(OC)c4)CC3)CC2)c1 | . | -0.62
CCOC(=O)c1c(NC(=O)CSc2ncnc3sc(C)c(C)c23)sc(C)c1C | . | -0.5
Cc1cc(-c2ccccc2)nc(Oc2ccc(C(C)(C)C)cc2)c1S(C)(=O)=O | . | 0.85

An unsorted share of the library. About 0.37% of those tested had a hit in this group.
